Screening results (PubChem BioAssay)
Rango-impB inh: qHTS Assay for Inhibitors of Rango (Ran-regulated importin-beta cargo) - Importin beta complex formation | Importin subunit beta-1 (Homo sapiens), Q14974 | Rango CFP/YFP FRET sensor + importin beta, 45 min | Potency, µM (doses to about 92.2 µM), without a hit: at the highest dose inhibition of complex formation | 340,000 compounds, 0.031% hits | AID 540263, 2011; active = rising FRET ratio curve, often small or poorly fitted; inconclusive = mostly compound fluorescence or quenching in the first reads; inactive = flat curves in all reads;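 also: potency is read from the fitted curve at half-maximal effect; 0% = DMSO wells and 100% = buffer wells lacking importin beta; nearly all actives have a fitted effect of over 15% in size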
Target sequence (Q14974 whole entry, looked up): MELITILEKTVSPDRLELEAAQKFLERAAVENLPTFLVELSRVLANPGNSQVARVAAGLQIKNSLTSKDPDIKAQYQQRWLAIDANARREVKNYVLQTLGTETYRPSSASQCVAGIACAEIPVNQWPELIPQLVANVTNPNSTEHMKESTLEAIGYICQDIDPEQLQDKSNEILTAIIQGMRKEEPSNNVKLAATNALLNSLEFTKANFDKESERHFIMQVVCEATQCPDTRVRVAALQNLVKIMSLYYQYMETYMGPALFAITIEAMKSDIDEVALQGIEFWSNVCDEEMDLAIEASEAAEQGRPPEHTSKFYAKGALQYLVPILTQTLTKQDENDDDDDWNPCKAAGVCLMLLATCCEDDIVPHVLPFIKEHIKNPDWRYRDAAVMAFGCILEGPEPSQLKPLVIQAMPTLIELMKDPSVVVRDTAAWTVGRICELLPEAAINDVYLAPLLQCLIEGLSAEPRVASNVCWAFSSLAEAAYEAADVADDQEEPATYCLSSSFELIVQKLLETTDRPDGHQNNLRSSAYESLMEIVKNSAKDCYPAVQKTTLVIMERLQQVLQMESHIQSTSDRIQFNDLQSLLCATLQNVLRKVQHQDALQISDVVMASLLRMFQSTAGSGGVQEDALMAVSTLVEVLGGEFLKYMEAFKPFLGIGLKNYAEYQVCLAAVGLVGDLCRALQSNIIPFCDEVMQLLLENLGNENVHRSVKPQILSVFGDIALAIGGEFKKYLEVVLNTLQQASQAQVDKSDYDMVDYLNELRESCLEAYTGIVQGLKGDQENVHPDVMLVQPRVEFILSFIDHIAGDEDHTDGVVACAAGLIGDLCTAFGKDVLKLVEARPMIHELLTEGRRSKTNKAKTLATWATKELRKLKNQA
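FRET biosensor (snurportin 1 IBB flanked by EYFP and cerulean), 50 nM, with compound 5 min, then 0.125 microM importin beta in PBS, 1 mM DTT, 0.02% Tween-20, 0.1% BSA. CFP/YFP ratio read after 45 min at room temperature; pre-read flags interference.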
Rango dissoc inh: qHTS Assay for Inhibitors of RanGTP induced Rango (Ran-regulated importin-beta cargo) - Importin beta complex dissociation; Biochemical FRET Rango-importin beta, RanGTP-induced dissociation; Snurportin-1 (Homo sapiens) + GTP-binding nuclear protein Ran (Homo sapiens) + Importin …; Potency, µM (doses to about 46.1 µM), for inactives: top-dose activity change, negative = inhibition; AID 540253, 2011; 340,000 compounds, 0.071% hits; active means falling FRET ratio curve, often poorly fitted, with flat reads before Ran was added; inconclusive means other falling curves, or compound fluorescence or quenching; inactive means flat or rising ratio curve;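 also: potency is read from the fitted curve at half-maximal effect; % of control where 0% means no effect; nearly all actives have a fitted effect of over 45% in size; -100% = wells without RanGTP and RCC1; the record marks most hits as doubtful in a second field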
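Quantitative HTS using a FRET biosensor: 0.1 uM Rango, 0.25 uM importin beta, 0.6 uM Ran, 2 mM GTP, 0.2 uM RCC1 final, PBS with DTT, Tween-20 and BSA. Post-read taken 45 min after Ran addition.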
miR-21 reporter: qHTS Assay for Modulators of miRNAs and/orActivators of miR-21; HeLa miR-21 FLuc reporter, luciferase, 48 h; Potency, µM (highest dose often 38.3 µM), without a hit: at the highest dose reporter change, positive = more light; 340,000 tested, under 10 active; active = well fitted rising curve with a large enough effect; inconclusive = small, poorly fitted or top-dose-only effect; inactive = no such curve, though single readings can be large or run the other way;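 also: % of control where 0% means no effect; miR-21 action dims this reporter so a rising signal means less miR-21 action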
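Compounds were titrated across several concentrations (up to approximately 40 uM) and incubated 48 hours with HeLa miR-21-FLuc reporter cells (miR-21 target sequence downstream of FLuc, endogenous miR-21). Readout was firefly luciferase luminescence after lytic detection reagent.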
GLA inh pH 4.5: qHTS Assay for Inhibitors of Human alpha-Galactosidase at pH 4.5. purified enzyme, 4-MU-alpha-Gal fluorescence, pH 4.5. activity change, negative = inhibition, % at 105 µM. Alpha-galactosidase A (Homo sapiens), P06280. 230,000 tested, under 10 active. AID 1467, 2008; inconclusive = small, poorly fitted or top-dose-only inhibition, or a rising curve; inactive = flat fitted curve, though single readings scatter; no compound was filed as active;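 also: 0% = full activity with enzyme and -100% = basal without enzyme; dose as in the result columns while the protocol names 77 µM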
The depositor's hits bear a star; ? = inconclusive; . = no result given; & = joins results of further samples; [ ] = remark or other dose.

SMILES | Rango-impB inh | Rango dissoc inh | miR-21 reporter | GLA inh pH 4.5
O=C(CSc1ccc(-c2cccnc2)nn1)Nc1ccc(F)cc1 | 0.5% | -17% | -2% | .
O=C(OC1CCOC1=O)c1ccc2ncsc2c1 (configuration not stated) | 0.0% | 0% | 2% | -4
Cc1ccc(C(=O)N2CCN=C2SCc2ccc([N+](=O)[O-])cc2)cc1C | 5.9% | 7% | 2% | -6
O=C(c1ccc(Cl)c(S(=O)(=O)Nc2ccccc2C(=O)N2CCc3ccccc3C2)c1)N1CCc2ccccc2C1 | 4.9% | 33% | -10% | -10
CCN1CCN(c2ccc(S(=O)(=O)N3CCCCC3)cc2N)CC1 | 0.7% | -1% | . | .
CC(=O)Nc1ccc(S(=O)(=O)Nc2nc3ccccc3nc2Nc2ccc(C(=O)O)c(O)c2)cc1 | -0.1% | -1% | . | .
COc1cc2c(cc1/C=C/C(=O)O)OC(C)C2 (configuration not stated) | 0.0% | 1% | -3% | ?
O=[N+]([O-])c1ccc(NCc2ccc3c(c2)OCO3)cc1 | -3.4% | -15% | -37% | -9
Cc1nc2ccccc2c(=O)n1NC(=O)c1ccc(C(C)(C)C)cc1 | -0.4% | 13% | 12% | .
CCOc1ccc(-c2nnc3ccc(SCC(=O)N4CCCCC4)nn23)cc1 | -0.9% | 3% | -2% | 12
Brc1ccc(-c2nnc(-c3ccccc3)o2)o1 | -2.7% | 18% | -52% | -6
CCNc1nc2cccnc2s1 | -1.2% | 14% | -16% | 8
O=C(CCC1CCCCC1)Nc1ccccc1-c1ccccc1 | -2.4% | -1% | -8% | -4
CN1CCN(c2nc3c(c(=O)n(C)c(=O)n3C)n2CC(N)=O)CC1 | -2.0% | 15% | 3% | -14
Cc1c(C(=O)N2CCC(C)CC2)cccc1[N+](=O)[O-] | -3.9% | -2% | -1% | 1

Entries from the list above that contain a COOH group:
SMILES | Rango-impB inh | Rango dissoc inh | miR-21 reporter | GLA inh pH 4.5
CC(=O)Nc1ccc(S(=O)(=O)Nc2nc3ccccc3nc2Nc2ccc(C(=O)O)c(O)c2)cc1 | -0.1% | -1% | . | .
COc1cc2c(cc1/C=C/C(=O)O)OC(C)C2 (configuration not stated) | 0.0% | 1% | -3% | ?

Among those listed so far, these have an aryl thioether with sulfur outside any ring:
SMILES | Rango-impB inh | Rango dissoc inh | miR-21 reporter | GLA inh pH 4.5
O=C(CSc1ccc(-c2cccnc2)nn1)Nc1ccc(F)cc1 | 0.5% | -17% | -2% | .
CCOc1ccc(-c2nnc3ccc(SCC(=O)N4CCCCC4)nn23)cc1 | -0.9% | 3% | -2% | 12

(listing goes on)
SMILES | Rango-impB inh | Rango dissoc inh | miR-21 reporter | GLA inh pH 4.5
Cc1ccc(-c2cc(C(=O)NN)n[nH]2)o1 | 0.3% | 1% | -8% | -17
Cc1c(S(=O)(=O)Nc2ccc(Oc3ccccc3)cc2)c(=O)n(C)c(=O)n1C | -0.9% | 7% | 0% | .
O=C(COC(=O)c1cc(=O)[nH]c2ccccc12)NCc1ccc(F)cc1 | -0.5% | 0% | . | .
COc1ccccc1NC(=O)CN1C(=O)NC(C)(C)C1=O | -0.1% | 1% | 1% | -1
Cc1cccc(CN2CCN(CC(=O)NCc3ccc(F)cc3)C2=O)c1 | -3.0% | 11% | . | .
CC(=O)Nc1ccc(C(=O)OCc2ccc(Cl)c(Cl)c2)cc1 | 5.5% | -13% | -21% | 7
CN(CCc1ccccn1)C(=O)Nc1ccc(F)cc1 | -5.8% | -3% | -6% | -8
O=C(OCc1cc([N+](=O)[O-])cc2c1OCOC2)c1ccc2ccccc2n1 | -4.4% | -6% | -1% | 4
Cn1c(CCN2CCCCC2)nc2cc(NC(=O)COc3ccc([N+](=O)[O-])cc3)ccc21 | 0.1% | 0% | 12% | .
COc1ccc(CCN2CC(O)=C(c3nc(C)cs3)C2=N)cc1OC | 0.1% | -2% | -5% | 7
CCOC(=O)C1=C(NC(=S)NC(=O)c2ccccc2)c2ccccc2CC1(C)C | 0.1% | 22% | 7% | 2
COC(=O)c1ccc(CSc2ncnc3c2nnn3-c2ccc(OC)cc2)o1 | -3.1% | 0% | 2% | 6
COc1ccc(N(C(=O)CS(=O)CC(=O)Nc2ccc(F)cc2)C(C(=O)NC2CCCCC2)c2cccs2)cc1 (configuration not stated) | -0.1% | -8% | -5% | 5
COc1ccc(NC(=O)COC(=O)C2CCC2)cc1Cl | 5.1% | 0% | 1% | .
Cc1cccc(N(CC(=O)NC2CCCCC2)C(=O)CCCC(=O)Nc2ccccn2)c1 | 3.2% | 30% | -5% | -5

Arranged by value in Rango-impB inh (highest first): 3 of the compounds above
SMILES | Rango-impB inh | Rango dissoc inh | miR-21 reporter | GLA inh pH 4.5
O=C(c1ccc(Cl)c(S(=O)(=O)Nc2ccccc2C(=O)N2CCc3ccccc3C2)c1)N1CCc2ccccc2C1 | 4.9% | 33% | -10% | -10
CCN1CCN(c2ccc(S(=O)(=O)N3CCCCC3)cc2N)CC1 | 0.7% | -1% | . | .
CCOC(=O)C1=C(NC(=S)NC(=O)c2ccccc2)c2ccccc2CC1(C)C | 0.1% | 22% | 7% | 2

An excerpt from above, reduced to Rango dissoc inh, GLA inh pH 4.5 and miR-21 reporter.
| mol | Rango dissoc inh | GLA inh pH 4.5 | miR-21 reporter |
| --- | --- | --- | --- |
| CCOC(=O)C1=C(NC(=S)NC(=O)c2ccccc2)c2ccccc2CC1(C)C | 22% | 2 | 7% |
| O=C(COC(=O)c1cc(=O)[nH]c2ccccc12)NCc1ccc(F)cc1 | 0% | . | . |
| COC(=O)c1ccc(CSc2ncnc3c2nnn3-c2ccc(OC)cc2)o1 | 0% | 6 | 2% |

Later entries:
SMILES | Rango-impB inh | Rango dissoc inh | miR-21 reporter | GLA inh pH 4.5
CCCCN(C(=O)c1ccc(-c2ccc([N+](=O)[O-])cc2)o1)c1c(N)n(CCCC)c(=O)[nH]c1=O | -4.0% | ? | . | .
COc1ccc(-c2noc(-c3cc4ccccc4oc3=O)n2)cc1 | . | . | -10% | -24
CC12CCC(C(=O)N(CCC#N)CCC#N)(CC1=O)C2(C)C (configuration not stated) | -2.4% | -3% | -6% | .
c1ccc(CCNCCCOc2cccc3ccccc23)cc1 | -4.8% | 1% | 0% | .
Cn1c(Cc2ccccc2)nnc1SCC(=O)c1cccs1 | -0.5% | 7% | -8% | -7
CCc1ccc(CCC(=O)Nc2ccc(OC)cc2)o1 | 3.0% | -2% | -15% | 4
COC(=O)c1ccc(-n2c(C)cc(C(=O)CSc3cccc[n+]3[O-])c2C)cc1 | -2.1% | -9% | -8% | 1
C(=N\Nc1ccc2ccccc2n1)/c1ccc2c(c1)OCO2 | -0.2% | 2% | 16% | 5
Fc1ccccc1CSc1nnc(-c2ccccc2)o1 | 0.9% | 11% | -59% | -5
O=[N+]([O-])c1ccccc1N/N=C/c1cccc(O)c1O | 4.9% | -5% | -102% | 0
Cc1cc(NC(=O)CSc2nnc(-c3ccoc3C)n2N)no1 | 1.0% | 5% | 0% | -1
CCOC(=O)C(CC)Sc1nc(N)c(NC(=O)c2ccc(OC)c(OC)c2)c(=O)[nH]1 (configuration not stated) | -2.9% | 21% | -4% | 3
O=C(CSc1nc2ccccc2c(=O)n1CCCN1CCOCC1)Nc1ccc(F)c(Cl)c1 | 4.1% | -8% | . | .
Fc1ccccc1N1CCN(c2nc(-c3cccs3)nc3ccccc23)CC1 | 3.2% | 0% | 2% | -1
CC1(OC(=O)C2CCCC2)C(=O)C=C2C=C(c3ccsc3)N(CC3CC3)C=C2C1=O (configuration not stated) | ? | -6% | 3% | 8&-9
Cc1sc2ncnc(SCC(=O)Nc3cccc(S(N)(=O)=O)c3)c2c1C | 0.2% | -11% | . | .
Cc1ccccc1-n1sc2cc(F)ccc2c1=O | -0.3% | 3% | ? | 2[21.1 µM]
O=C(Nc1cc(-c2nc3ccccc3s2)ccc1Cl)c1ccc2c(c1)OCO2 | -2.6% | ? | -39% | 10
CC(C)NC(=O)c1onc(CSc2ccc(Cl)cc2)c1C(=O)O | -2.5% | -7% | 1% | 4
CCOCC(=O)Nc1cc(C(=O)NCCc2ccccc2)ccc1Cl | 0.4% | 0% | -16% | 7
CC(C)C(=O)Nc1cccc(COc2ccc(CN(Cc3ccccc3)C(=O)OC(C)(C)C)cc2)c1 | 1.3% | ? | . | .
Cc1cc(C)cc(NC(=O)COc2ccc3c(C)c(Cc4ccccc4)c(=O)oc3c2)c1 | . | . | 0% | -2
CCN(CCNC(=O)C1CCCN(S(=O)(=O)CC)C1)c1ccccc1 (configuration not stated) | -0.5% | -2% | 1% | -7
O=C1c2cccnc2C(O)N1Cc1ccc(F)cc1 (configuration not stated) | 3.9% | -8% | 2% | -1
COc1ccc(O)c(/C=N/NC(=O)CCC(=O)Nc2ccc(C)cc2)c1 | -0.6% | -1% | 30% | .
O=C(CN(Cc1ccccc1)C(=O)CSc1nnc(COc2ccccc2)o1)NC1CCCC1 | 0.3% | -6% | -5% | 2
O=C(Cc1c(F)cccc1Cl)Nc1ccccc1-c1ccccc1 | 6.8% | 4% | -1% | .
Cn1cccc1-c1cc(C(=O)N/N=C/C=C/c2ccccc2)[nH]n1 | 0.0% | -11% | 2% | -3
CN(CCO)c1ccc(C(C(=O)c2ccccc2)c2ccc(N(C)CCO)cc2)cc1 | 1.4% | 1% | . | .
CNc1nc(Nc2ccc(Br)cc2)nc(N)c1[N+](=O)[O-] | 0.2% | 7% | -43% | -5
CCOC(=O)c1c(NC(C)=O)sc2c(OCC(O)CN(CC)CC)c(Br)ccc12 (configuration not stated) | 3.8% | 16% | 0% | -24
COc1cccc2cc(-c3csc(CCn4nc(C)cc4C)n3)c(=O)oc12 | -3.4% | 4% | -24% | 2
CCCCN(C(=O)CCC(=O)O)C1CC(=O)N(c2ccc(OCCC)cc2)C1=O (configuration not stated) | 0.6% | 11% | 1% | -7
COc1cc(OC)cc(-c2nnc(NC(=O)c3ccc4c(c3)OCCO4)o2)c1 | 0.3% | -27% | -2% | .
Cc1nc2ncnn2c(N2CCC(C(=O)NCC3CCCO3)CC2)c1Cc1ccccc1 (configuration not stated) | -2.8% | 0% | . | .
CCOC(=O)c1c(NC(=O)c2cc(C(C)C)on2)sc(C(C)=O)c1C | -0.1% | 7% | -7%&-4% | 0
CCO[C@@H]1OC(C(=O)O)=C[C@H](C2CC2)[C@H]1CCCO | -0.8% | -18% | -1% | 6
O=C1NC(c2cccs2)Nc2sc3c(c21)CCCC3 (configuration not stated) | -1.3% | 11% | -39% | 2
NC(=O)C1CCCN1 (configuration not stated) | -2.5% | -3% | 7% | -13
O=S(=O)(Cc1ccc(Cl)cc1)CC(O)COCc1ccccc1 (configuration not stated) | 1.3% | -7% | -5% | 3
CCCCCCCCCCCCC(NC(C)=O)(C(=O)OCC)C(=O)OCC | 1.3% | -1% | 3% | -26
CC(C)CC(=O)Nc1ncc([N+](=O)[O-])s1 | -1.3% | 6% | -19% | 15
COc1ccc(NS(=O)(=O)c2c(C)[nH]c(=O)[nH]c2=O)cc1OC | 0.6% | 11% | -2% | .

These rows are one share of the data; count on the stated rates, not on these rows.
